MbtI inh = blocks the Mycobacterium tuberculosis siderophore enzyme MbtI. purified MbtI enzyme, fluorescence intensity read-out. inhibition, %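 (about 17 µg/mL by stock and volumes)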. 0.89% of 100,000 active;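 active = above 50% in both replicates, above 80% if mildly self-fluorescent; inactive = the rest, strongly fluorescent compounds included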;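 also: 0% = mean of negative and 100% = mean of positive controls; one replicate is shown; some compounds called inactive have numbers as strong as hits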
Target sequence (P9WFX0 whole entry, looked up): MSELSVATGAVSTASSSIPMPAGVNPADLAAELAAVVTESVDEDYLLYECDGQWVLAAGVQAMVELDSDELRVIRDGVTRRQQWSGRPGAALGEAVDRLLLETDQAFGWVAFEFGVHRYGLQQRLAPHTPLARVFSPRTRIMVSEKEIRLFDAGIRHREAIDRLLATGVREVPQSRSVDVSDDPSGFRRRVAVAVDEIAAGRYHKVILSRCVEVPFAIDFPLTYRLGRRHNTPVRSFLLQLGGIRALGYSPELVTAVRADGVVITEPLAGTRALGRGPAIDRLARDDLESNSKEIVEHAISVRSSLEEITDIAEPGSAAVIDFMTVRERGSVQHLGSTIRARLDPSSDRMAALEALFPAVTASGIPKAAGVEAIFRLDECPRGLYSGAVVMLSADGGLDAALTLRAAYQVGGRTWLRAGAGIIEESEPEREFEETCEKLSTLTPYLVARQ
Polio RdRp inh = poliovirus RNA polymerase inhibition; poliovirus polymerase elongation, fluorescence polarization; active compounds read low; % elongation, % (compound at 16.7 µg/mL); 0.66% of 150,000 active; AID 588519; in the data active = % elongation below about 90%; also: some results filed as inactive read as strong as hits
Target sequence (P03300 1749-2209 limits assumed): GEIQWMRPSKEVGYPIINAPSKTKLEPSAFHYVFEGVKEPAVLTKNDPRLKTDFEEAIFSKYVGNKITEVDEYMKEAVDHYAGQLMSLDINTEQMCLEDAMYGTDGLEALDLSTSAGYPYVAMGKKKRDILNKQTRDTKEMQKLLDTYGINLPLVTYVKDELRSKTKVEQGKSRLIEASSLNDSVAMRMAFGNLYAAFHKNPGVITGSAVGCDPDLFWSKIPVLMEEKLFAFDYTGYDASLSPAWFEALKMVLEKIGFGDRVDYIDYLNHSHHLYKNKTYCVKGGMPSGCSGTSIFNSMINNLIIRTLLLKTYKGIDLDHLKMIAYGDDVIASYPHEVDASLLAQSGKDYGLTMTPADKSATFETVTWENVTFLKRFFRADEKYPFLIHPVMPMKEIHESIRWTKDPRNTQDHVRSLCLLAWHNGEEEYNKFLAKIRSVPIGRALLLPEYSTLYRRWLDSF
MenB inh = inhibitors of Mycobacterium tuberculosis MenB enzyme. AID 540299. MenB enzyme assay, absorbance read-out; some hits fall short of the stated cut. inhibition, %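 (about 12 µg/mL by stock and volumes)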. 0.43% of 100,000 active. P9WNP5;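 active = mean of two replicates above 30%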;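 also: 0% = no compound and 100% = wells with inactive enzyme; the first replicate is given; strong numbers were not always called active; inactives centre near -10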
Polio RdRp inh intensity = also measured in Polio RdRp inh; calls as there; % elongation; measured here: total intensity read-out; formula for this scale not given here;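 total fluorescence in place of polarization; lower means less elongation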
* marks the source's active call; other numbers are inactive results; . = no result given; & = joins results of further samples.

compound,MbtI inh,Polio RdRp inh,Polio RdRp inh intensity,MenB inh
COc1ccccc1OC(C)C(=O)N(Cc1ccc(Cl)cc1)Cc1ccco1 (stereo not drawn),-5,99,103,5
COc1ccc(CCN=C(N)Nc2nc(C)cc(C)n2)cc1,0,102,102,14
COc1cc(C#N)c2ccc3ccccc3c2c1,20,100,94,2
Cc1ccccc1NC(=S)N1CCC(NC(=O)C(C)(C)C)CC1,-9,104,103,-15
c1cc2c(cc1CNc1ccc(N3CCOCC3)cc1)OCO2,-6,104,104,-45
O=C(C1Cc2ccccc2CN1C(=O)c1ccccc1)N1CCN(c2ccccc2)CC1 (stereo not drawn),-4,103,107,9
COc1ccc(NS(=O)(=O)c2ccc(C(=O)N(C)C)s2)cc1,11,101,96,14
COc1ccc(-c2cc(-c3ccccc3)c(C#N)c(S(=O)Cc3ccccc3)n2)cc1 (stereo not drawn),105,99,107,-18
Nc1cc(-c2ccc(Cl)cc2)nn1S(=O)(=O)c1ccccc1,-2,103,100,3
Cc1nn(-c2ccccc2)c2[nH]c(=O)cc(C(F)(F)F)c12,-67,101,103,.
Cc1ccc(OC(=O)C2c3ccccc3Oc3ccccc32)cc1C,9,100,100,-20
CC(O)CNC(=O)C12CC3CC(CC(C3)C1)C2 (stereo not drawn),.,106,113,-2
CCOC(=O)c1noc2ncnc(NC(C)C)c12,5,100,103,-5
COC(=O)c1ccc(C)c(NC(=O)c2ccncc2)c1,-2,106,99,-14
CCn1cc(C2=NOC(C(=O)N3CCCC3)C2)c(C)n1 (stereo not drawn),-8,100,104,-3
CCN(CCO)CCCC(C)Nc1ccnc2cc(Cl)ccc12 (stereo not drawn),-14,101,102,-6
Cc1cc(O)c(C=Nc2ccccc2C(F)(F)F)c(=O)o1,11,103,101,-7
O=C(CSc1ncn[nH]1)N(C1CCCCC1)C1CCCCC1,-20,101,104,-9
CC(Sc1nc2cc(Cl)ccc2s1)C(N)=O (stereo not drawn),5,112,119,-11
CC(C)c1ccc(S(=O)(=O)N2CCN(C(=O)c3ccco3)CC2)cc1,-6,102,106,1
CCOC(=O)c1oc2ccccc2c1NC(=O)CN1CCOCC1,9,107,100,-47
CC(C)(C)NC(=O)CSc1nc2ccccc2c(=O)[nH]1,5,105,101,-41
COc1ccc(CCNC2=NCCS2)cc1,-4,101,100,.
Cc1nn(-c2ccccc2)c2c1C(C(F)(F)F)(C(F)(F)F)N=C(N(C)C)O2,0,102,103,0
CCCC(CC(=O)O)CC(=O)O,-17,103,104,-12
C=CCN1C(=O)/C(=C2\SC(=S)N(CCC)C2=O)c2ccccc21,.,106,111,-21
O=C(c1ccccc1)N1CCN(C(=O)C2CCCCN2S(=O)(=O)c2ccccc2)CC1 (stereo not drawn),11,102,106,9
O=C(Cn1cnc2ccccc2c1=O)Nc1cccc(Cl)c1,.,108,112,-10
O=C(c1cc2ccccc2oc1=O)N1CCCC1,25,98,103,38
N#CC1(c2ccc(Cl)cc2)c2ccccc2NN1c1ccccc1 (stereo not drawn),0,105,107,-5
COc1ccc(-n2ncc3c(=O)n(CC(=O)N4CC(C)CC(C)C4)cnc32)cc1 (stereo not drawn),-5,100,100,-36
COc1ccc2c(C(F)(F)F)cc(=O)oc2c1,115,102,100,-10
COc1cc2ccccc2cc1C(=O)N1CCCN(C)c2nc3ccccc3nc21,8,103,90,-27
O=c1c2ccccc2nc(SCc2ccon2)n1Cc1ccccc1,-4,104,108,-32
O=C(O)C(O)C(O)c1nc2cc3ccccc3cc2[nH]1 (stereo not drawn),.,102,100,-60
COc1cccc(-c2cc(C(=O)N3CCCC3)no2)c1,-4,102,104,4
CSc1nnc(-c2ccc(Cl)cc2Cl)n1Cc1ccco1,1,109,105,-14
CS(=O)(=O)C1=NN2C(=N)/C(=C\c3ccco3)C(=O)N=C2S1,13,103,105,-85
CS(=O)(=O)N1CCC(C(=O)NCCN2CCCCCC2)CC1,-7,103,102,0
COc1ccc2c(c1)sc1nc(-c3ccc(C)o3)c(NC3CCCCC3)n12,-5,100,107,-15

(cont.)
Below each compound – MbtI inh	Polio RdRp inh	Polio RdRp inh intensity	MenB inh
CCCS(=O)(=O)Nc1cccc(-c2cn3c(n2)SCC3)c1
  22	106	105	-18
Nn1c(Cc2ccccc2F)nnc1SCC(=O)N1CCc2ccccc2C1
  4	101	104	-8
COC(=O)C1=C(Nc2ccc(C)cc2)CC(C)(O)C(C(=O)OC)C1c1ccc(Br)cc1 (stereo not drawn)
  .	105	111	-18
Cc1ccc(C(=O)Nc2ccc3oc(-c4cccnc4)nc3c2)cc1
  22	102	102	6
CCOC(=O)N1CCN(CC(O)COc2ccccc2C(C)C)CC1 (stereo not drawn)
  -6	105	101	-10
CS(=O)(=O)N1CCC(Cc2ccccc2)CC1
  .	104	109	-1
CC(C)N(C(=O)CN1C(=O)c2ccccc2S1(=O)=O)c1ccccc1
  -6	101	96	.
Cc1ccc(O)c(NC(=O)c2ccc3c(c2)C(=O)N(Cc2ccco2)C3=O)c1
  -2	104	104	-21
COCC(C)NCc1ccc(SC)cc1 (stereo not drawn)
  0	101	103	19
O=C(O)C(Cc1ccccc1)NS(=O)(=O)c1ccc2[nH]c(=O)c(=O)[nH]c2c1 (stereo not drawn)
  1	104	107	-16
COC(=O)c1c(F)c(F)c(Oc2ccc(C)cc2)c(F)c1N1CCCC1
  1	101	102	-2
O=C(NCc1ccc(-c2csnn2)cc1)c1cc(Cl)cc(Cl)c1
  -15	104	111	-10
CC(C)c1ccc(NC(=S)Nc2cccc(C(F)(F)F)c2)cc1
  -2	106	106	-19
C=CCN1CNc2c(c(=O)[nH]c(=S)n2-c2cccc(C)c2C)C1
  11	101	103	17
Cc1cccc(C(=O)C2CCN(S(=O)(=O)c3ccc(C(=O)O)cc3)CC2)c1
  4	103	103	-33
COc1cc(OC)cc(-c2nnc(SCC(=O)N=c3sccn3Cc3ccc(C)cc3)o2)c1
  8	104	106	-14
COc1ccc2c(c1)[nH]c1c(=O)n(CCN3CCCCC3C)cnc12 (stereo not drawn)
  0	101	102	11
Cc1ccc(C)c(NCN2C(=O)CSC2=O)c1
  2	100	101	-24
COc1ccccc1-c1nnc(SCC(=O)C(C)(C)C)n1Cc1ccco1
  -4	106	111	5
COC(=O)CCc1[nH]c2ccccc2c1Sc1ccccc1
  .	103	111	-11
CCCNC(=O)C1CC(c2ccc(OC)cc2)=NO1 (stereo not drawn)
  -3	103	108	3
O=C(NCCN1CCOCC1)c1c(Cl)cccc1Cl
  1	103	105	-9
Cc1cnc(NC(=O)c2cccc3ccccc23)s1
  0	97	109	5
c1c2c(cc3c1OCO3)OCN(CC13CC4CC(CC(C4)C1)C3)C2
  -2	102	104	14
Cc1ccccc1NC(=O)C1CC(O)CN1C(=O)OCc1ccccc1 (stereo not drawn)
  .	103	114	-6
CC1CCN(C(=O)c2ccccc2NC(=O)Nc2ccccc2)CC1
  -18	102	103	1
COC(=O)c1ccccc1NC(=O)COC(=O)/C=C/c1ccco1
  -1	104	115	-9
O=C(CSc1ncnc2c1oc1ccccc12)c1ccc(Cl)cc1
  -1	101	100	-1
CC(C)(C)C(=O)Nc1noc2ccccc12
  8	107	108	1
COc1ccc(NC(=O)COc2cccc3c2CCN(C)C3=O)cc1
  1	100	102	10
COc1ccc(C(CNC(=O)COc2ccccc2)N2CCCCC2)cc1 (stereo not drawn)
  12	100	99	8
CC(=O)N1CCc2cc(NC(=S)NCc3cccs3)ccc21
  -7	107	109	0
CCOC(=O)c1ccc(NC(=S)NC2CCS(=O)(=O)C2)cc1 (stereo not drawn)
  -1	107	109	-23
O=C(Nc1ccccc1N1CCOCC1)c1cc(C2CC2)nn1-c1ccccc1
  -32	99	96	-15
COc1cccc(N=CC2=C3N(CCC2)c2ccccc2C3(C)C)c1
  .	98	101	-228
Cn1c2c(c(=O)n(C)c1=O)C(c1ccccc1)C(C#N)=C(N)O2 (stereo not drawn)
  .	85*	84*	-19
Cc1ccc2c(CC(=O)O)coc2c1
  -17	101	106	.
O=C(O)C1COc2ccccc2C1 (stereo not drawn)
  -2	100	95	-17
O=C(CO/N=C/c1ccco1)Nc1ccc(OC(F)F)cc1
  7	115	116	4
N#C/C(=C\c1cc(Cl)cc(Cl)c1)c1cccnc1
  -8	101&100	103&101	-2
CCN(C(=O)Cn1cc(C(=O)c2cccs2)c2ccccc21)c1ccccc1
  2	99	100	9
CN(C)S(=O)(=O)c1ccc(N2CCCC2)c(C(=O)OCn2nnc3ccccc3c2=O)c1
  11	98	92	3
CSc1sc(C2=NNC(O)(C(F)(F)F)C2)c2c1C(=O)CCC2(C)C (stereo not drawn)
  -5	107	112	-7
COC(=O)c1ccc(/C=N\NC(=O)CNc2ccc(C)cc2)cc1
  -16	99	101	-33
COc1cccc(CN(Cc2nnnn2C2CCCCC2)CC2CCCO2)c1 (stereo not drawn)
  -5	99	101	-32
CC(C)(C)c1ccc(NC(=O)NNc2ncccc2C#N)cc1
  15	101	102	-9
CCOC(=O)c1ccc(N2CCCC2)cc1
  .	104	108	-16
COc1ccc(NC(=O)CN(C)c2nc3cc(C)nn3c3ccccc23)cc1
  109	100	105	-34
O=C(COc1ccccc1)N/N=C/c1ccccc1
  0	104	100	11
COc1cccc(NC(=O)CSc2ncnc3ccccc23)c1
  1	101	107	-16

Continuation.
Below each compound – MbtI inh	Polio RdRp inh	Polio RdRp inh intensity	MenB inh
CC(C)C(O)(C#CCN1CCCCC1)C(C)C
  .	102	105	-10
COC(=O)c1cc(COC(=O)CCc2nc3ccccc3s2)oc1C
  -19	104	102	-2
C=CCn1cnnc1SCC(=O)c1ccccc1OC
  0	111	113	-7
CC(C)c1nc2ccccc2n1C(C)C(=O)O (stereo not drawn)
  .	99	102	-4
CCCC(C#CCN1CCCCC1)OC(C)=O (stereo not drawn)
  .	102	105	-4
CC(Cc1nnc(SCC(=O)c2ccc[nH]2)n1N)c1ccccc1 (stereo not drawn)
  12	.	.	-30
Cn1nccc1Nc1ccc(OC(=O)c2ccnn2C)cc1
  .	102	105	-4
O=C1c2oc3ccccc3c(=O)c2C(c2ccc(F)cc2)N1c1ccccn1 (stereo not drawn)
  -4	102	101	8
O=C1OCc2cccc3cccc(c23)S(=O)c2cccc3cccc1c23 (stereo not drawn)
  11	101	102	5
CS(=O)(=O)c1ccc2nc(NC(=O)CN3C(=O)c4ccccc4C3=O)sc2c1
  -3	100	102	7
COc1ccc(CNC(=O)COC(=O)c2ccccc2NS(C)(=O)=O)cc1OC
  -76	97	94	15
Cc1ccc(N2C=NNC(=O)C2)cc1C
  9	101	101	9
CCOc1ccc(-n2ccnc2SCC(=O)Nc2ccccc2)cc1
  6	100	99	-6
COc1ccccc1CC(=O)NC1CCCCC1
  8	102	99	-16
CNC(=S)NNc1cc(C)c2c(C)nn(C)c2n1
  43	99	102	9
NC(=O)c1ccc(NC(=O)c2cc3c(s2)CCC3)cc1
  -7	103	104	.
CCNc1nc2ccccc2s1
  -12	103	101	-34
Nn1c(CCn2c3ccccc3c3ccccc32)n[nH]c1=S
  87	103	102	-79
O=C(CSc1nc2scc(-c3cccs3)c2c(=O)n1-c1ccccc1)NCc1ccco1
  .	106	109	-31
S=c1[nH]c(=S)c2cnc(N3CCOCC3)nc2[nH]1
  -4	104	107	-17
CC1=CCC(C(C)(C)NC(=O)c2ccccc2)C/C1=N/O (stereo not drawn)
  -21	99	103	17
CCOC(=O)C1CCN(C(=O)COc2ccccc2)CC1
  .	100	96	-29
C=CCn1c(SC(C#N)Cc2ccc(C)cc2)nnc1C1COc2ccccc2O1 (stereo not drawn)
  6	103	106	-53
Cc1cccc(C(C)C)c1NC(=O)COC(=O)c1cccnc1Cl
  -1	102	98	.
Cc1cc2nc(-n3nnc4ccccc43)c3ccccc3n2n1
  -3	100	106	-1
O=C(c1ccc2c(Cl)c3c(nc2c1)CCCC3)N1CC=C(c2ccccc2)CC1
  4	100	96	-13
COC(=O)CSc1nc(N)nc(C)c1Br
  -3	102	103	2
CC(C)CCNC(=O)c1c[nH]c2ccc(S(=O)(=O)N3CCc4ccccc43)cc2c1=O
  -7	101	105	-7
C=CCn1c(C)c(C(=O)OC)sc1=Nc1ccccc1
  16	103	105	-5
